HNF4A DNA FP = change in binding of human HNF4 alpha to DNA; P41235; HNF4a-FITC DNA binding, fluorescence polarization, 1 h; activity change, % at 10 µM; actives 0.3% (n = 360,000); AID 1224865; in the data active means activity change above about 30%, passing the limit was not always enough;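 further: controls were the assay level and a saturating level of protein; the project sought stronger binding though the title names inhibitors; some compounds called inactive have numbers as strong as hits; positive values seem to mean higher polarization but the record does not say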
FGF22 binding = FGF22 (human) thermal shift binding; Q9HCT0; recombinant FGF22 thermal shift, SYPRO orange fluorescence; percent of sucrose octasulfate shift, DMSO zero; calls only at 9.99 µM; actives 1.5% (n = 340,000); AID 651658;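 active means melting point raised past a set limit in the mean and every replicate; inconclusive means no clear call; three in four hits are not shown here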
Target sequence (Q9HCT0 whole entry, looked up): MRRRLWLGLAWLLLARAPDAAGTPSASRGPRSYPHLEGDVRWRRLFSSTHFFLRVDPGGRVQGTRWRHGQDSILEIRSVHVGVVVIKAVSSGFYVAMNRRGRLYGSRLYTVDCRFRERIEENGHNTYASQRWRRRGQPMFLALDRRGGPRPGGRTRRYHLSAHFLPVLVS
Beta2AR agonist = agonists of human beta-2 adrenergic receptor inducing internalization | P07550 | Am2.2-beta2AR cells, FAP receptor internalization, flow cytometry; reference of the scale not given here | response, % (concentration not given with the values) | actives 0.43% (n = 340,000) | AID 504454;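 active means response above a set limit, near 3 SD of response in nonfluorescent compounds, cut at about 42% in these data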;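 further: stock transfer was 100 nL into about 11 µL; a reference agonist was the positive control; negative values mostly stem from fluorescent compounds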
Target sequence (P07550 whole entry, looked up): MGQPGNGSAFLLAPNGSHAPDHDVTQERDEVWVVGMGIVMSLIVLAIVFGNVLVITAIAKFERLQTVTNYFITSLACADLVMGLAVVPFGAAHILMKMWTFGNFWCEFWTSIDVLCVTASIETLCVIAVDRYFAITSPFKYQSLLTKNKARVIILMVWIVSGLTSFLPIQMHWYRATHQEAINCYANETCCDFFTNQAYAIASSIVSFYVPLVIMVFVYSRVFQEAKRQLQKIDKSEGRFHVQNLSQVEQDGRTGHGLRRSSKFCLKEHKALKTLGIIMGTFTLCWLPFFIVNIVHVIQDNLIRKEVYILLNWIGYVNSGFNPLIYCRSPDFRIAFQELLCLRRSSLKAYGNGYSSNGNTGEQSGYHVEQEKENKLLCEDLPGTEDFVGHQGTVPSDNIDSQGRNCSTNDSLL
LANA-H2B inh = blocks KSHV LANA binding to histone H2A/H2B. Q9QR71. cell-free LANA-H2A/H2B peptide, fluorescence polarization. inhibition, % (no concentration beside the values). actives 0.6% (n = 320,000); in the data active means inhibition mostly above about 10%, no sharp cut-off; inactive means mostly below about 6.7%;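 further: stock transfer was 7.5 nL into about 10 µL; 0% = median of vehicle wells and 100% = median of positive control wells; one replicate is shown; the record names a cut of 25% in any replicate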
UCH37 DUB inh = human UCH37 deubiquitinating enzyme inhibition | actives 0.33% (n = 330,000) | purified proteasome/UCH37, Ub-AMC cleavage fluorescence | inhibition, % (test concentration not listed);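 active means mean of two replicates above 20%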;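 further: 0% = compound-free wells with enzyme and 100% = wells lacking proteasome; stock transfer was 100 nL into about 20 µL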
Target sequence (Q9Y5K5 whole entry, looked up): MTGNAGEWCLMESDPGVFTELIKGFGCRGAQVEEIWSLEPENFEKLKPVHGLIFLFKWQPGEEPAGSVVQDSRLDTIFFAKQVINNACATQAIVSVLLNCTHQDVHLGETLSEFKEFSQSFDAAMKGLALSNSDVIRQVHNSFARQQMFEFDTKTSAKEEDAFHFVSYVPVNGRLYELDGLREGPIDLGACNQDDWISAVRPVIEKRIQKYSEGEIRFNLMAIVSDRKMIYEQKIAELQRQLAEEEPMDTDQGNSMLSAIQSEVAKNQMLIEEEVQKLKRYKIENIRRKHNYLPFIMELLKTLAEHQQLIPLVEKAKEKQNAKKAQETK
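Schedule: 30 min plus 25 min, room temperature / Material: human UCH37 within purified proteasomes / Technique: AMC fluorescence intensity at 355/460 nm / Buffer or medium: pH 7.4 Tris-HCl (50 mM) with ovalbumin, ATP-MgCl2, DTT / Controls: wells without proteasome as full block, compound-free enzyme plus substrate as uninhibited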
Ecoli growth = inhibitors of Escherichia coli growth | OD600, 23 h; active compounds read low | actives 0.21% (n = 330,000) | OD600 absorbance (no concentration beside the values) | AID 1053175;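 active means OD600 absorbance below the run mean of sample wells minus 3.6 SD, in any replicate, cut at about 0.56 in these data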;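 further: stock transfer was 300 nL into about 60 µL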
ALR inh = human ALR oxidase inhibition via reduced H2O2; P55789; purified ALR, DTT oxidation, H2O2 HRP-luminol luminescence; inhibition, % (no concentration beside the values); actives 3.8% (n = 290,000); AID 485317;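 active means mean and each replicate at 75% or more; inconclusive means only one of the two met; inactive means neither met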;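 further: stock transfer was 7.5 nL into about 7.5 µL; 0% = neutral wells and 100% = wells with inactivated enzyme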
Starred values were filed as active, the others as inactive; i = inactive; ? = inconclusive; nt = not tested or not shown. The list is partial, so the mix of outcomes need not match the whole.

HNF4A DNA FP,FGF22 binding,Beta2AR agonist,LANA-H2B inh,compound,UCH37 DUB inh,Ecoli growth,ALR inh
-1.2,i,0,-1.2,COc1ccc(-c2nnc(SCC(=O)NC3CC3)o2)cc1,2.5,0.71,-4
-3.7,nt,-17,-4.8,c1ccc(CN2CCN(CCN3CCn4c3nc3ccccc34)CC2)cc1,0.3,0.76,7
-1.4,i,6,6.0,CC(=O)NCCc1ccc(C(=O)COC(=O)c2ccco2)cc1,4.7,0.67,-1
2.8,nt,-9,-2.5,CN(C1CC(C)(C)N(O)C(C)(C)C1)S(=O)(=O)CC12CCC(CC1=O)C2(C)C (centres undefined),1.9,0.66,10
2.0,i,4,-3.0,O=C(Nc1ccc2c(c1)OCO2)C1CCCN(c2nc3ccccc3s2)C1 (centres undefined),2.6,0.67,-26
-2.5,nt,-6,-7.7,Cc1ccccc1C(=O)N1CCC(n2nccc2NC(=O)C2CC2)CC1,-1.2,0.73,-9
3.1,i,0,-1.8,CC(=O)N[C@@H](CC(=O)N[C@H](CCC(=O)O)C(=O)O)C(=O)O,2.0,nt,-16
-0.2,i,-10,-0.5,Cc1ccc(C(=O)N/N=C/c2cc(Br)ccc2O)cn1,nt,nt,-19
-3.6,i,-13,-1.0,O=[N+]([O-])c1cc(Oc2cccnc2)cc([N+](=O)[O-])c1,0.7,0.7,-20
0.3,i,2,1.6,CC(=O)N(C)c1ccc(NC(=O)CCN2C(=O)c3ccccc3C2=O)cc1,3.5,0.72,-3
0.9,i,2,4.4,CCCCn1c(CCC(=O)O)ccc1-c1cccs1,-10,0.74,93*
2.4,i,5,-13,Cc1ccccc1CSc1nnc([C@@H]2CCCN2)o1,0.2,0.69,nt
0.3,nt,-1,-0.4,O=C(CCN1C(=O)c2cccc3cccc(c23)C1=O)N1CCN(c2ccccc2F)CC1,5.4,0.69,-6
3.6,nt,0,-2.6,O=C1NC2(CCCCC2)C(=O)N1c1ccccc1,1.1,0.72,-2
7.0,i,2,5.7,O=[N+]([O-])c1ccc(Oc2cc(NC3CCCCCCC3)c([N+](=O)[O-])cc2[N+](=O)[O-])cc1,7.4,0.7,-6
-0.4,i,-2,0.1,CN(c1ccccc1)S(=O)(=O)c1ccc(C(=O)N2CCc3ccccc3C2)cc1,3.0,0.73,-2
2.8,i,6,5.7,O=C(Nc1ccc2ccccc2n1)Nc1cccs1,6.6,0.69,11
34,i,7,2.9,CCc1ccc(NC(=O)/C(C#N)=C/c2cc3ccc(C)cc3nc2N2CCOCC2)cc1,6.0,0.75,nt
-0.5,i,-6,0.3,O=C(CSc1nnc(NCc2ccccc2)s1)NC1CCS(=O)(=O)C1 (centres undefined),1.4,0.69,-5
0.1,i,-5,2.0,COCCC(=O)N1CCC(Oc2ccc(C(=O)N(C)Cc3cc(C)no3)cc2)CC1,5.4,0.74,-1
2.9,i,-2,-0.5,Cc1ccc(SC(C)C(=O)Nc2ncn[nH]2)cc1 (centres undefined),-1.6,0.68,-6
0.6,i,-4,0.9,CN(Cc1ccccc1)C(=O)c1cccnc1,2.4,0.64,2
1.7,nt,2,-1.6,CCCn1c(SCC(=O)N2CCN(c3ccc(OC)cc3)CC2)nc2c1c(=O)n(C)c(=O)n2C,-0.6,0.69,57
-2.5,i,1,-25,CCOc1ccc(NC(=O)CN(C)C(=O)C2CC(=O)N(Cc3ccco3)C2)cc1OCC (centres undefined),4.4,0.67,-9
0.5,nt,-6,5.8,CSCCC(NC(=O)C1CCC(C)CC1)C(=O)NCCN1CCOCC1 (centres undefined),2.5,0.68,-8

Printed as active in ALR inh, of those listed so far:
HNF4A DNA FP,FGF22 binding,Beta2AR agonist,LANA-H2B inh,compound,UCH37 DUB inh,Ecoli growth,ALR inh
0.9,i,2,4.4,CCCCn1c(CCC(=O)O)ccc1-c1cccs1,-10,0.74,93*

Returning to the listing; the 3 compounds before the break are reprinted first.
HNF4A DNA FP,FGF22 binding,Beta2AR agonist,LANA-H2B inh,compound,UCH37 DUB inh,Ecoli growth,ALR inh
1.7,nt,2,-1.6,CCCn1c(SCC(=O)N2CCN(c3ccc(OC)cc3)CC2)nc2c1c(=O)n(C)c(=O)n2C,-0.6,0.69,57
-2.5,i,1,-25,CCOc1ccc(NC(=O)CN(C)C(=O)C2CC(=O)N(Cc3ccco3)C2)cc1OCC (centres undefined),4.4,0.67,-9
0.5,nt,-6,5.8,CSCCC(NC(=O)C1CCC(C)CC1)C(=O)NCCN1CCOCC1 (centres undefined),2.5,0.68,-8
14,nt,8,-0.4,Cc1cccc(NC(=S)NC2CC3CCCC(C2)N3Cc2cccs2)c1 (centres undefined),-1.5,0.66,-1
8.2,nt,-2,3.8,Cc1cccc(OCCNc2ccc(C(F)(F)F)cc2[N+](=O)[O-])c1,5.6,0.69,-1
6.3,i,-3,nt,CCOc1ccc(CN(C)Cc2cc(=O)oc3c(C)c(C)ccc23)cc1OC,nt,nt,nt
0.6,i,2,1.4,O=C(O)c1ccc(Nc2nc3c(s2)CCCC3)cc1,nt,nt,4
-0.7,i,6,4.1,Cn1nc(C(=O)N2CCN(c3ccc(Cl)cc3)CC2)c2c1-c1ccccc1S(=O)(=O)C2,0.8,0.66,6
3.8,nt,3,-4.3,CN1CCN(Cc2c(O)ccc3occ(C(=O)c4ccccc4)c23)CC1,4.1,0.72,9
0.0,nt,0,4.7,CCn1c(SCC(=O)N2CCc3ccccc32)nnc1-c1c[nH]c2ccccc12,-4.0,0.74,-12
-4.9,nt,-4,-0.2,CC(C)c1ccc(S(=O)(=O)c2cc3cc(Br)ccc3oc2=O)cc1,3.8,0.69,nt
1.2,i,6,nt,O=C1C(O)CCN1Cc1ccccc1 (centres undefined),1.7,0.71,nt
0.9,i,-6,3.3,Cc1cccc(NC(=O)C2(c3ccccc3)CCOCC2)c1,1.2,0.66,21
1.1,i,4,-4.1,COc1cc(OC)c(OC)cc1/C=N/Nc1ccc(Cl)nn1,nt,nt,-2
-1.4,i,8,-0.8,COc1ccc(OC)c(/C=C2\SC(=S)N(NS(=O)(=O)c3ccc(C)cc3)C2=O)c1,14,0.68,6
-0.4,i,-3,1.6,CC(C)COc1ccc(C(=O)N/C(=C\c2cccc([N+](=O)[O-])c2)C(=O)O)cc1,7.3,0.64,nt
-1.4,i,1,-2.6,CCOC(=O)C1(Cc2ccccc2C)CCCN(C(=O)c2ccc(OC)o2)C1 (centres undefined),2.2,0.69,7
0.1,i,-10,2.7,COc1ccc(CNC(=O)C2CCCN(S(=O)(=O)c3ccc(-n4cnnn4)cc3)C2)cc1 (centres undefined),3.4,0.66,-2
-4.6,nt,-11,-3.3,COc1ccc(CCNC(=O)CN2C(=O)c3ccccc3S2(=O)=O)cc1,0.7,0.7,6
5.1,i,-6,2.2,Cc1cc(C(=O)OCC(=O)c2cccs2)c2ccccc2n1,1.3,0.76,-5
3.7,i,14,-5.6,Cc1cccc(NC(=O)CCC(=O)Nc2nnc(C3CCCCC3)s2)c1,0.3,0.69,4
2.9,i,2,-3.0,CC1=Nc2ccccc2N=C(NC(=O)c2ccccc2)C1c1ccc(Cl)cc1 (centres undefined),2.7,0.7,0
1.4,i,4,-2.9,CCOC(=O)c1[nH]c2ccccc2c1NC(=O)CC(C)C,-5.7,0.73,-4
-4.1,i,4,5.3,COc1ccc2c(CC(=O)OCC(=O)Nc3ccc(C)cc3)coc2c1,0.6,0.72,nt
0.6,i,-2,-1.1,Cc1ccc(NC(=O)CSc2nnnn2C)cc1S(=O)(=O)N(C)C,4.8,0.65,-12
2.5,i,-9,-4.2,COc1ccc(C2(C)NC(=O)N(CC(=O)NC3CC3)C2=O)cc1 (centres undefined),2.3,0.72,-1
0.9,i,4,-1.5,O=C(c1ccccc1)c1ccc(COC(=O)c2cnccn2)cc1,1.0,0.72,-1
0.3,nt,-1,3.3,CC(CC1CC(C)(C)OC1=O)C(=O)Nc1nncs1 (centres undefined),2.2,0.76,-24

One compound at a time, as listed above. Screens in order: HNF4A DNA FP	FGF22 binding	Beta2AR agonist	LANA-H2B inh	UCH37 DUB inh	Ecoli growth	ALR inh
Cc1cc(C(=O)OCC(=O)c2cccs2)c2ccccc2n1 in the list: 5.1	i	-6	2.2	1.3	0.76	-5
COc1ccc(CCNC(=O)CN2C(=O)c3ccccc3S2(=O)=O)cc1 in the list: -4.6	nt	-11	-3.3	0.7	0.7	6

Next results.
HNF4A DNA FP,FGF22 binding,Beta2AR agonist,LANA-H2B inh,compound,UCH37 DUB inh,Ecoli growth,ALR inh
3.0,nt,-16,0.7,Cc1cc2ccccc2n2c(SCC(=O)N3CCc4ccccc4C3)nnc12,2.6,0.75,4
0.0,i,2,nt,O=C1[C@H]2CCC=C[C@H]2[C@H](c2ccccc2Br)N1Cc1ccccc1,1.6,0.68,nt
3.3,i,-4,2.1,COc1ccccc1-n1c(SC(C)C(=O)NCC2CCCO2)nc2cc(Cl)ccc2c1=O (centres undefined),-1.6,0.69,-2
2.5,i,4,nt,CCOc1ccc(NC(=S)N2CCC(C(=O)c3ccc(F)cc3)CC2)cc1,nt,nt,nt
-5.4,i,-3,nt,COc1cccc(CN(C)S(=O)(=O)c2c(C)noc2C)c1OC,0.1,0.68,nt
3.7,i,-35,nt,Cc1cc2c(=O)oc(-c3ccccc3Br)nc2s1,-13,0.68,nt
0.2,nt,-3,-3.1,O=C(O)c1cccc(NC(=O)c2cccc(S(=O)(=O)Nc3cccc([N+](=O)[O-])c3)c2)c1,5.0,0.63,76*
-1.9,i,4,-2.0,O=C(O)CSCC(=O)Nc1ccccc1,0.3,0.72,-10
2.1,nt,6,0.5,CC(C)CCNC(=O)NC(=O)COC(=O)/C=C/c1cnc2ccccc2n1,2.9,0.68,4
-3.3,i,-7,-0.2,COc1cccc(-n2nnnc2SCC(=O)NC2CCCCC2)c1,1.6,0.71,-12
-4.5,nt,-1,-1.8,C/C=C/Cn1c(SC)nc2c1c(=O)[nH]c(=O)n2C,2.7,0.73,0
-5.5,i,2,1.1,CC1CCC(NC(=O)CN2C(=O)NC(C)(C)C2=O)CC1 (centres undefined),0.9,0.67,2
-3.2,i,-8,-19,CC(C)NC(=O)C1CCN(C2CCN(Cc3ccc4cccc(F)c4n3)CC2)CC1,1.8,0.68,-9
2.0,i,2,-0.3,Cn1c(N)c(C(=O)CCl)c(=O)n(C)c1=O,0.6,0.69,6
2.5,i,11,-1.1,CCOC(=O)CSC1=NC(=O)/C(=C/c2ccc(Br)cc2)S1,8.3,0.71,?
-1.8,i,3,3.8,O=S1(=O)N=C(N(CCO)/N=C/c2ccc(Cl)cc2)c2ccccc21,nt,nt,-8
0.1,i,-5,-0.4,Clc1ccc(C[n+]2cc(-c3ccc(Cl)cc3)n3c2CCC3)cc1,7.7,0.61,-19
0.5,i,-5,0.1,O=C(Nc1ccccc1)C1=C[C@H](c2ccc(C(F)(F)F)cc2)C[C@H](OCCCCO)O1,5.1,nt,-2
-4.7,i,5,1.6,CCOc1ccc(OCC)c(NC(=O)CCSCCc2ccccn2)c1,5.6,0.64,-9
